Yeast UUG start = yeast start codon fidelity modulation | S. cerevisiae UUG-firefly luciferase reporter, luminescence/redox ratio | activity score, % at 18.7 µM | actives 0.13% (n = 350,000) | AID 602363;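 active = replicate mean at a twofold rise or more, about +100% in these data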;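 note: firefly luciferase made from a UUG start codon reports start codon fidelity; reporter light over untreated wells divided by growth signal over untreated wells; some hits fall short of that in this replicate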
Env fusion inh = HIV envelope-mediated fusion inhibition; HeLa-JRFL Env/CEM21 cell fusion, luciferase; inhibition, % at 12.3 µM; actives 1.1% (n = 360,000);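 active = mean replicate inhibition score of at least 50 and every replicate individually at or above 50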;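 note: 0% = plate neutral controls and 100% = maraviroc near 300 nM; one replicate is shown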
* = called active by the depositor; [ ] = remark or other dose. Not all compounds are listed; the hit share may differ from the screen's.

structure,Yeast UUG start,Env fusion inh
COc1ccc(S(=O)(=O)Nc2cccc3c2O[C@H](CN(C)Cc2ccc(Oc4ccccc4)cc2)[C@H](C)CN([C@@H](C)CO)C3=O)cc1,4,-21[16.7 µM]
COc1ccc(CN(C)C[C@@H]2Oc3c(NC(=O)C4CCCCC4)cccc3C(=O)N([C@H](C)CO)C[C@H]2C)cc1,9,30[16.7 µM]
O=C(C[C@@H]1CC[C@H](NC(=O)c2ccc(F)cc2)[C@@H](CO)O1)NCCc1ccncc1,-12,15[16.7 µM]
CCCC#Cc1cnc2c(c1)C(=O)N([C@H](C)CO)C[C@@H](C)[C@H](CN(C)C)O2,4,-9[16.7 µM]
C[C@@H]1CCCCO[C@@H](CN(C)S(=O)(=O)c2cn(C)cn2)[C@H](C)CN([C@@H](C)CO)C(=O)c2cc(NC(=O)C3CCCCC3)ccc2O1,7,-2[16.7 µM]
CCNC(=O)C[C@H]1CC[C@@H]2[C@H](COc3ccc(NC(=O)Cc4cccs4)cc3C(=O)N2C)O1,-12,-5[16.7 µM]
COc1cccc(NC(=O)N(C)C[C@@H]2Oc3ncc(C#Cc4cccnc4)cc3C(=O)N([C@H](C)CO)C[C@H]2C)c1,2,-16[16.7 µM]
O=C(CN1CCOCC1)N[C@@H]1CC[C@H](CCNC(=O)C2CCCCC2)O[C@H]1CO,-9,-8[16.7 µM]
CCS(=O)(=O)Nc1ccc2c(c1)C(=O)N(C)[C@@H]1CC[C@@H](CC(=O)NC)O[C@@H]1CO2,6,21[16.7 µM]
C[C@@H]1CCCCO[C@H](CN(C)Cc2ccc(C(F)(F)F)cc2)[C@H](C)CN([C@@H](C)CO)C(=O)c2cc(NC(=O)Nc3ccc(C(F)(F)F)cc3)ccc2O1,-12,38[16.7 µM]
Cc1noc(C)c1NC(=O)N(C)C[C@@H]1OCCCC[C@H](C)Oc2ccc(NS(=O)(=O)c3c(C)noc3C)cc2C(=O)N([C@@H](C)CO)C[C@@H]1C,19,18[16.7 µM]
C[C@H]1CN([C@@H](C)CO)C(=O)Cc2cc(NC(=O)CCN3CCOCC3)ccc2O[C@H]1CN(C)C(=O)NC1CCCCC1,9,3[16.7 µM]
Cc1ccc(S(=O)(=O)N(C)C[C@@H]2OCCCC[C@H](C)Oc3ccc(NC(=O)Nc4ccc(C(F)(F)F)cc4)cc3C(=O)N([C@@H](C)CO)C[C@@H]2C)cc1,-13,37[16.7 µM]
C[C@@H]1CN([C@H](C)CO)C(=O)Cc2cc(NC(=O)Cc3cn(C)c4ccccc34)ccc2O[C@H]1CN(C)Cc1ccc(Oc2ccccc2)cc1,-4,-33[16.7 µM]
C[C@@H]1CCCCO[C@@H](CN(C)S(=O)(=O)c2cccs2)[C@H](C)CN([C@@H](C)CO)C(=O)c2cc(NC(=O)Nc3ccc4c(c3)OCO4)ccc2O1,-18,-12[16.7 µM]
COc1ccc(NC(=O)Nc2ccc3c(c2)C(=O)N([C@@H](C)CO)C[C@H](C)[C@@H](CN(C)Cc2ccc(Cl)c(Cl)c2)OCCCC[C@@H](C)O3)cc1,-6,14[16.7 µM]
O=S(=O)(N[C@H]1CC[C@@H](CCn2cc(C3(O)CCCC3)nn2)O[C@H]1CO)c1ccc(F)cc1,-1,-13[16.7 µM]
COc1ccc(S(=O)(=O)N[C@@H]2C=C[C@@H](CC(=O)NCc3ccccc3F)O[C@H]2CO)cc1,-9,13[16.7 µM]
C[C@@H]1CN([C@H](C)CO)S(=O)(=O)c2ccc(C3=CCCC3)cc2O[C@H]1CN(C)C(=O)C1CCC1,-3,13[16.7 µM]
COc1ccc(NC(=O)N[C@H]2CC[C@@H](CCn3cc(-c4ccccn4)nn3)O[C@H]2CO)cc1,-18,5[16.7 µM]
C[C@@H]1CN([C@@H](C)CO)C(=O)c2cccc(NC(=O)Nc3ccccc3)c2O[C@@H]1CN(C)Cc1ccc(-c2ccccc2)cc1,11,-41[16.7 µM]
COC(=O)C[C@@H]1CC[C@H]2[C@@H](COc3ccc(NC(=O)NCc4ccccc4)cc3C(=O)N2C)O1,0,9[16.7 µM]
C[C@H]1CN([C@@H](C)CO)S(=O)(=O)c2ccc(-c3ccccc3F)cc2O[C@@H]1CN(C)C,-5,8[16.7 µM]
O=C(N[C@@H]1CC[C@@H](CC(=O)N2CCc3ccccc3C2)O[C@@H]1CO)C1CCOCC1,6,8[16.7 µM]
C[C@@H](NC(=O)C[C@H]1C[C@@H]2c3cc(NC(=O)Nc4ccccc4F)ccc3O[C@@H]2[C@H](CO)O1)c1ccccc1,-9,-8[16.7 µM]
COCC(=O)N(C)C[C@H]1Oc2cc(C3=CCCC3)ccc2S(=O)(=O)N([C@H](C)CO)C[C@H]1C,-4,9[16.7 µM]
O=C(C[C@H]1C[C@H]2c3cc(NC(=O)c4cccnc4)ccc3O[C@H]2[C@@H](CO)O1)NCc1cccc(F)c1,-13,-7[16.7 µM]
COc1cccc(-c2cnc3c(c2)C(=O)N([C@@H](C)CO)C[C@@H](C)[C@H](CN(C)C(=O)CN(C)C)O3)c1,-2,-19[16.7 µM]
COc1ccc(S(=O)(=O)Nc2ccc3c(c2)CC(=O)N([C@H](C)CO)C[C@H](C)[C@H](CN(C)S(=O)(=O)c2ccc(OC)cc2)O3)cc1,3,56*[16.7 µM]
COc1ccc(NC(=O)N[C@H]2CC[C@H](CCn3cc(-c4ccccn4)nn3)O[C@@H]2CO)cc1,-18,21[16.7 µM]

The list goes on, starting with the last 2 of the part before.
structure,Yeast UUG start,Env fusion inh
COc1ccc(S(=O)(=O)Nc2ccc3c(c2)CC(=O)N([C@H](C)CO)C[C@H](C)[C@H](CN(C)S(=O)(=O)c2ccc(OC)cc2)O3)cc1,3,56*[16.7 µM]
COc1ccc(NC(=O)N[C@H]2CC[C@H](CCn3cc(-c4ccccn4)nn3)O[C@@H]2CO)cc1,-18,21[16.7 µM]
C[C@@H]1CN([C@H](C)CO)C(=O)c2cc(NC(=O)c3ccncc3)ccc2O[C@@H]1CN(C)Cc1ccncc1,2,13[16.7 µM]
Cc1ccc(S(=O)(=O)Nc2ccc3c(c2)C(=O)N([C@@H](C)CO)C[C@H](C)[C@@H](CN(C)S(=O)(=O)c2cn(C)cn2)O3)cc1,-9,-24[16.7 µM]
CC(C)c1cn(CC[C@H]2CC[C@H](NC(=O)C3CCCCC3)[C@@H](CO)O2)nn1,11,14[16.7 µM]
COc1ccc(S(=O)(=O)N(C)C[C@@H]2Oc3ncc(C#CCN(C)C)cc3C(=O)N([C@H](C)CO)C[C@@H]2C)cc1,11,9[16.7 µM]
O=C(O)C[C@@H]1C[C@@H]2c3cc(NC(=O)NC4CCCC4)ccc3O[C@@H]2[C@H](CO)O1,-10,4[16.7 µM]
COc1ccc(S(=O)(=O)Nc2cccc3c2O[C@@H](CN(C)C(=O)NC(C)C)[C@H](C)CN([C@@H](C)CO)C3=O)cc1,2,5[16.7 µM]
O=C(C[C@H]1C[C@@H]2c3cc(NC(=O)NC4CCCC4)ccc3O[C@@H]2[C@H](CO)O1)NCc1ccc2c(c1)OCO2,10,8[16.7 µM]
C[C@@H]1CN([C@H](C)CO)S(=O)(=O)c2ccc(-c3cccc(F)c3)cc2O[C@@H]1CN(C)S(C)(=O)=O,8,-2[16.7 µM]
C[C@@H]1CCCCO[C@H](CN(C)C(=O)c2ccccc2)[C@H](C)CN([C@@H](C)CO)C(=O)c2cc(NC(=O)C3CCCCC3)ccc2O1,11,-1[16.7 µM]
CCC(=O)N(C)C[C@@H]1Oc2ncc(-c3ccccc3C)cc2C(=O)N([C@H](C)CO)C[C@@H]1C,11,-3[16.7 µM]

Profiles, looked up by structure. Screens in order: Yeast UUG start, Env fusion inh
C[C@@H]1CN([C@H](C)CO)S(=O)(=O)c2ccc(-c3cccc(F)c3)cc2O[C@@H]1CN(C)S(C)(=O)=O is entered as 8, -2[16.7 µM]
C[C@@H]1CCCCO[C@@H](CN(C)S(=O)(=O)c2cccs2)[C@H](C)CN([C@@H](C)CO)C(=O)c2cc(NC(=O)Nc3ccc4c(c3)OCO4)ccc2O1 is entered as -18, -12[16.7 µM]
CCCC#Cc1cnc2c(c1)C(=O)N([C@H](C)CO)C[C@@H](C)[C@H](CN(C)C)O2 is entered as 4, -9[16.7 µM]
C[C@@H]1CCCCO[C@H](CN(C)Cc2ccc(C(F)(F)F)cc2)[C@H](C)CN([C@@H](C)CO)C(=O)c2cc(NC(=O)Nc3ccc(C(F)(F)F)cc3)ccc2O1 is entered as -12, 38[16.7 µM]
O=C(C[C@@H]1CC[C@H](NC(=O)c2ccc(F)cc2)[C@@H](CO)O1)NCCc1ccncc1 is entered as -12, 15[16.7 µM]

More compounds
structure,Yeast UUG start,Env fusion inh
C[C@@H]1CN([C@@H](C)CO)C(=O)c2cccc(NS(=O)(=O)c3ccc(Cl)cc3)c2O[C@H]1CN(C)Cc1ccc(-c2ccccc2)cc1,0,-15[16.7 µM]
CCCNC(=O)Nc1ccc2c(c1)OC[C@@H](C)NC[C@@H](C)[C@@H](OC)CN(C)C2=O,7,1[16.7 µM]
Cc1ccc(S(=O)(=O)Nc2ccc3c(c2)C(=O)N([C@H](C)CO)C[C@@H](C)[C@H](CN(C)Cc2ccc(C(F)(F)F)cc2)OCCCC[C@@H](C)O3)cc1,13,65*[16.7 µM]
CCC(=O)N(C)C[C@H]1Oc2cc(C#CCC(C)C)ccc2S(=O)(=O)N([C@@H](C)CO)C[C@H]1C,23,-2[16.7 µM]
COc1ccc(NC(=O)N(C)C[C@H]2Oc3ccc(NC(=O)NC(C)C)cc3CC(=O)N([C@H](C)CO)C[C@@H]2C)cc1,-4,-11[16.7 µM]
C[C@H](CO)N1C[C@H](C)[C@@H](CN(C)Cc2ccc(C(=O)O)cc2)Oc2ccc(NS(=O)(=O)c3cccs3)cc2C1=O,-15,9[16.7 µM]
COc1ccc(NC(=O)N(C)C[C@H]2Oc3ccc(NC(=O)CCC(F)(F)F)cc3C(=O)N([C@H](C)CO)C[C@H]2C)cc1,35,4[16.7 µM]
C[C@@H]1CN([C@H](C)CO)C(=O)c2cc(NC(=O)CCC(F)(F)F)ccc2O[C@@H](C)CCCCO[C@@H]1CN(C)Cc1ccc(C(F)(F)F)cc1,8,18[16.7 µM]
CO[C@@H]1CN(C)C(=O)c2ccc(NC(=O)c3ccc(Oc4ccccc4)cc3)cc2OC[C@H](C)NC[C@@H]1C,-4,23[16.7 µM]
C[C@@H]1CN([C@@H](C)CO)C(=O)c2cc(-c3cncnc3)cnc2O[C@H]1CN(C)Cc1ccc(F)cc1,-2,-28[16.7 µM]
COc1ccc(NC(=O)Nc2ccc3c(c2)[C@@H]2C[C@@H](CC(=O)N4CCOCC4)O[C@H](CO)[C@@H]2O3)cc1,-6,-4[16.7 µM]
C[C@@H]1CCCCO[C@@H](CN(C)Cc2ccccc2)[C@H](C)CN([C@H](C)CO)C(=O)c2cc(NC(=O)C3CCCCC3)ccc2O1,15,16[16.7 µM]
N#C[C@H]1[C@@H](c2ccc(C3=CCCC3)cc2)[C@@H](CO)N1C(=O)C1CCCC1,9,15[16.7 µM]
COc1ccc(C(=O)Nc2ccc3c(c2)C(=O)N(C)C[C@@H](OC)[C@H](C)CN[C@H](C)CO3)cc1,11,12[16.7 µM]
COc1ccc(S(=O)(=O)N(C)C[C@@H]2Oc3cc(C4=CCCC4)ccc3S(=O)(=O)N([C@H](C)CO)C[C@H]2C)cc1,-3,26[16.7 µM]
COc1cccc(CNC(=O)C[C@@H]2C=C[C@@H](NC(=O)C3CCOCC3)[C@H](CO)O2)c1,-7,-1[16.7 µM]
COCC(=O)Nc1ccc2c(c1)[C@@H]1C[C@@H](CC(=O)NCc3ccc(-c4ccccc4)cc3)O[C@@H](CO)[C@@H]1O2,3,-38[16.7 µM]
C[C@H](CO)N1C[C@H](C)[C@@H](CN(C)C(=O)Nc2ccc(C(F)(F)F)cc2)Oc2ccc(NC(=O)CCN3CCOCC3)cc2CC1=O,16,1[16.7 µM]
C[C@H](CO)N1C[C@H](C)[C@H](CN(C)C(=O)Nc2ccc(C(F)(F)F)cc2)OCCCC[C@H](C)Oc2ccc(NS(=O)(=O)c3ccccc3)cc2C1=O,-8,38[16.7 µM]
O=C(NCC[C@H]1CC[C@@H](NC(=O)C2CCCCC2)[C@@H](CO)O1)c1cc(Cl)cc(Cl)c1,3,4[16.7 µM]
C[C@H]1CN([C@@H](C)CO)S(=O)(=O)c2ccc(C#CC(C)(C)O)cc2O[C@@H]1CN(C)C(=O)C1CCC1,10,-8[16.7 µM]
COC(=O)C[C@H]1CC[C@@H]2[C@H](COc3ccc(NC(=O)Nc4ccc(Cl)cc4)cc3C(=O)N2C)O1,12,23[16.7 µM]
CC(C)NC(=O)N(C)C[C@@H]1Oc2cc(Br)ccc2S(=O)(=O)N([C@H](C)CO)C[C@H]1C,6,-37[16.7 µM]
COc1ccc(NC(=O)Nc2ccc3c(c2)[C@@H]2C[C@@H](CC(=O)N4CCc5ccccc5C4)O[C@@H](CO)[C@@H]2O3)cc1,21,-7[16.7 µM]
CCC(=O)N(C)C[C@H]1Oc2cc(-c3ccncc3)ccc2S(=O)(=O)N([C@H](C)CO)C[C@H]1C,19,-29[16.7 µM]
C[C@@H]1CN([C@H](C)CO)C(=O)Cc2cc(NC(=O)Nc3cccc4ccccc34)ccc2O[C@H]1CN(C)S(=O)(=O)c1ccc(Cl)cc1,6,-12[16.7 µM]
C[C@H]1CN([C@@H](C)CO)C(=O)c2cc(C#Cc3ccc(F)cc3)cnc2O[C@H]1CN(C)Cc1ccccn1,-17,12[16.7 µM]
COc1ccc(S(=O)(=O)N[C@@H]2CC[C@@H](CCn3cc(-c4ccccc4F)nn3)O[C@@H]2CO)cc1,1,-20[16.7 µM]
C[C@H]1CCCCO[C@H](CN(C)C(=O)Nc2ccc(C(F)(F)F)cc2)[C@@H](C)CN([C@@H](C)CO)C(=O)c2cc(NC(=O)C3CCCCC3)ccc2O1,1,31[16.7 µM]
